Source: PubChem BioAssay (several laboratories)
Sa ugtP lethal – growth inhibition of ugtP-null S. aureus, primary screen, RN4220 ugtP deletion, OD600 | 16 h; some inactives read as strong as hits | growth inhibition, % (test concentration not listed) | hit rate 0.54% among 330,000;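 active means z-score under -3 and OD600 up to 0.15 on both plates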;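 further: plate controls were untreated wells for no effect and antibiotic for full effect; wells of about 80 µL received 100 nL stock; the first replicate is given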
Bead autofluor – compound fluorescence in toxin protease inhibitor counterscreen. compound autofluorescence counterscreen, microsphere flow cytometry; hits give high values. fluorescence intensity (no concentration beside the values). hit rate 3.1% among 360,000;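 active means at least 3 SD above the mean of all compounds, about 16000 in these data; inconclusive means too few beads counted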;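 further: 100 nL of 1 mM stock went into each well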
BJeLR viability – MLPCN primary cell-based screen for lethality selective to Ras in HRASV12 cells. BJeLR (HRASV12) viability, CellTiter-Glo ATP luminescence, 48 h; reference of the scale not given here. hit rate 0.17% among 300,000. inhibition, % (test concentration not listed);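 active means replicate mean above 50%; inconclusive means above 50% but judged a plate artefact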;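 further: 50 nL library stock added to about 25 µL; numbers are from one replicate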
Sa RN4220 lethal – growth inhibition of S. aureus RN4220, primary screen, OD600; inhibition, % (concentration not given with the values); hit rate 0.33% among 330,000; 16 h; AID 1259311, 2017;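 active means z-score of -3 or lower and OD600 up to 0.18 on both plates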;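 further: plate controls were untreated cells for no effect and reference antibiotic for full effect; stock transfer was 100 nL into about 80 µL; one replicate is shown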
Mtb hypoxia inh – PubChem AID 1159583; M. tuberculosis hypoxia-regulated fluorescent reporter, fluorescence; fluorescence inhibition, % (test concentration not listed); hit rate 0.1% among 300,000;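 active means 35 to 45% if threefold the growth effect, above 45% if 1.5-fold the growth effect; inactive means the rest, general growth blockers included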;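 further: wells of about 50 µL received 100 nL stock; 0% = vehicle wells and 100% = reference inhibitor wells; whole bacteria with a GFP reporter of the hypoxia response; strong numbers were not always called active; many hits fall short of the cut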
PrP 5UTR inh – inhibition of PrP 5' UTR reporter expression. AID 488862, 2010. cell-based PrP 5' UTR mRNA reporter, plate reader. hit rate 0.35% among 340,000. inhibition, % (test concentration not listed);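 active means every replicate at 50% or more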;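 further: 0 = median of the neutral control wells; tested in H4 reporter cells; numbers are from one replicate; inactives centre near -14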
Mtb hypoxia inh growth – recorded beside Mtb hypoxia inh, whose call it bears; growth inhibition, %; measured here: M. tuberculosis growth (absorbance);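 0% = vehicle and 100% = reference antibiotic; read after six days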
Starred values were filed as active, the others as inactive; ? = inconclusive; . = no result given.

Sequence of screens – Sa ugtP lethal	Bead autofluor	BJeLR viability	Sa RN4220 lethal	Mtb hypoxia inh	Mtb hypoxia inh growth	PrP 5UTR inh
1. Cc1cc(NC(=O)CC(C)(C)C)nc2c1c(=O)oc1ccccc12
    -5	11165	-1	1.6	10	13	-19
2. O=C(Cn1nc(-c2ccccc2)c2ccccc2c1=O)Nc1ccc(O)cc1
    3	4073	-5	23	8	3	-9
3. COCC(C)OC(=O)c1c(N)n(-c2ccc(OC)c(OC)c2)c2nc3ccccc3nc12 (configuration not stated)
    -2	.	2	-1.1	0	13	.
4. CC[C@@]1(C(=O)OC)N[C@H](CN(C)S(=O)(=O)c2ccc(F)cc2)[C@@H]2C(=O)N(C)C(=O)[C@@H]21
    2	3677	.	2.6	5	12	-2
5. Cc1ccc(-c2nc3c4ccccc4ccn3c2CN2CCCCC2)cc1
    22	4635	5	0.3	-3	7	.
6. COc1ccc(S(=O)(=O)N2CCOCC2)cc1C(=O)N1CCCC1
    2	?	5	0.8	3	7	-3
7. Cc1ccc(CN2C(=O)CCC2C(=O)NCc2ccccc2Cl)cc1 (configuration not stated)
    -4	4494	6	2.9	5	4	-23
8. CCOc1ccc(S(=O)(=O)N2CCC(C(=O)Nc3ccc(C)c(S(=O)(=O)N4CCOCC4)c3)CC2)cc1
    0	3516	.	2.4	14	42	-48
9. Cc1ccc(NC(=O)CN2CCC3(O)CCCCC3C2c2ccc3c(c2)OCO3)c(C)c1 (configuration not stated)
    -3	11394	7	2.5	-6	4	-4
10. O=C(CCC(=O)c1ccc(F)cc1)Nc1cccc(Br)c1
    1	3172	-4	-0.2	1	1	0
11. CN(C)c1cc(-c2cccc([N+](=O)[O-])c2)oc(=O)c1Cl
    2	.	6	-0.6	0	4	2
12. C=CCn1c(SCC(=O)NC(=O)Cc2ccccc2)nnc1-c1ccccc1F
    7	4593	.	2.9	15	13	-20
13. CC(=O)C1=C(O)C(=O)N(c2ccc(C(=O)O)cc2)C1c1ccc([N+](=O)[O-])cc1 (configuration not stated)
    6	3851	-7	2.8	-2	1	-17
14. C=CCn1cccc(C(=O)Nc2ccc(OC)c(Cl)c2)c1=O
    6	4077	-13	4.6	1	5	-21
15. Cc1onc(-c2c(Cl)cccc2Cl)c1C(=O)N=C(N)N1CC(C)OC(C)C1 (configuration not stated)
    3	4020	-2	3.6	4	0	-10

The last 4 records of the part above lead into the next:
Sequence of screens – Sa ugtP lethal	Bead autofluor	BJeLR viability	Sa RN4220 lethal	Mtb hypoxia inh	Mtb hypoxia inh growth	PrP 5UTR inh
12. C=CCn1c(SCC(=O)NC(=O)Cc2ccccc2)nnc1-c1ccccc1F
    7	4593	.	2.9	15	13	-20
13. CC(=O)C1=C(O)C(=O)N(c2ccc(C(=O)O)cc2)C1c1ccc([N+](=O)[O-])cc1 (configuration not stated)
    6	3851	-7	2.8	-2	1	-17
14. C=CCn1cccc(C(=O)Nc2ccc(OC)c(Cl)c2)c1=O
    6	4077	-13	4.6	1	5	-21
15. Cc1onc(-c2c(Cl)cccc2Cl)c1C(=O)N=C(N)N1CC(C)OC(C)C1 (configuration not stated)
    3	4020	-2	3.6	4	0	-10
16. O=C(/C=C/Sc1ncn[nH]1)c1ccc(Cl)cc1
    .	7695	47	.	.	.	-29
17. Cc1ccccc1NC(=O)c1c(C)[nH]c(=S)c(C#N)c1-c1ccc(Cl)cc1
    0	6139	-11	2.5	3	5	.
18. CCc1ccccc1NC(=O)CSc1nc2ccccc2n1CC(=O)N(C)C
    -2	7403	4	4.2	3	10	-18
19. O=C(OCC(=O)N1CCc2ccccc21)c1ccc(Br)o1
    -3	3723	.	0.2	3	14	-25
20. O=C(O)C1CCC(=O)N1Cc1ccccc1Cl (configuration not stated)
    5	4698	.	1.6	.	.	-21
21. C=CCNCC(O)COc1ccc(C(C)=O)cc1OC (configuration not stated)
    11	4983	10	2.9	-15	0	-19
22. Cc1c(-c2ccccc2)[n+](=O)c(-c2ccc(Br)cc2)c(C)n1[O-]
    6	3828	0	4.1	11	9	-18
23. Cc1cc(C(=O)COC(=O)C2COc3ccccc3O2)c(C)n1CC1CCCO1 (configuration not stated)
    -2	4022	8	4.5	8	6	-16
24. O=C(O)c1ccc(C=NNc2ccc(C(F)(F)F)cn2)cc1
    1	.	.	1.3	10	14	.
25. Cc1ccsc1C(=O)OCC(=O)Nc1sccc1C(N)=O
    -5	6428	3	7.1	9	12	-113
26. COc1cc(C(=O)N2CCN(Cc3ccccc3C(F)(F)F)CC2)cc(OC)c1OC
    8	8521	12	-0.6	-3	1	-27
27. CC(C)CCNC(=O)NC(=O)COc1ccccc1C#N
    1	4560	1	-0.1	5	-1	-44
28. COc1ccc(Cl)cc1C(=O)NN=Cc1ccc(N2CCOCC2)cc1
    23	.	.	6.0	-2	6	.
29. CCOc1cc(CO)ccc1OCC(=O)N1CCCCC1
    -3	9560	0	5.4	10	11	-18
30. CN(C)c1ccc(/C=C2\C(=N)N3N=C(CC(=O)N4CCCCC4)SC3=NC2=O)cc1
    .	6606	0	.	.	.	-29
31. COc1ccc(NC(=O)COC(=O)CC2Sc3ccccc3NC2=O)cc1 (configuration not stated)
    -6	?	.	1.2	6	4	-20
32. O=C(N/C(=C/c1ccc(Br)cc1)C(=O)N1CCOCC1)c1cccs1
    .	3556	5	.	.	.	-22
33. CCOC(=O)/C=C/C(=O)Nc1ccc(S(=O)(=O)N(C)c2ccccc2)cc1
    -3	2143	-1	9.7	6	9	-14
34. CCC(=O)Nc1ccc2oc(-c3cccnc3)nc2c1
    8	4449	-2	5.5	-11	4	-19
35. O=C(Nc1cccc2ccccc12)c1ccccc1NS(=O)(=O)c1cccc2cccnc12
    3	2616	3	-3.0	5	0	-11
36. CC1CCCN(c2nc3c(c(=O)[nH]c(=O)n3C)n2Cc2ccccc2Cl)C1 (configuration not stated)
    5	5876	3	4.8	10	11	1
37. CCOc1ccc(CN2CCNC(=O)C2CC(=O)NC2CCOCC2)cc1 (configuration not stated)
    1	5137	-5	-1.7	4	3	-8
38. C=CC1CN(C(=O)OCC(Cl)(Cl)Cl)C2CC3c4ccc(OC)cc4NC3C3CC1C2CO3 (configuration not stated)
    20	4073	4	-6.8	.	.	.
39. Cc1cc(-c2ccccc2)n(-c2cc(NN=Cc3ccccc3O)ncn2)n1
    101*	.	.	79	7	6	.
40. CSc1ccccc1C(=O)OCC(=O)NCCN1C(=O)CSC1=O
    3	5101	.	0.7	-2	1	-3
41. Cc1ccc(NC(=O)c2ccc3ccccc3n2)cc1S(=O)(=O)N(C)C
    5	3903	-7	6.9	6	11	-41
42. CN(C)CCCN1C(=O)C(=O)/C(=C(/O)c2ccncc2)C1c1ccccc1 (configuration not stated)
    .	2752	-3	.	.	.	-4
43. O=C(COC(=O)CCSc1ccc(Cl)cc1)NCc1ccccc1Cl
    4	1931	-2	4.2	17	4	-19
44. COc1ccc(NCc2nnc(SCC(=O)N3CCCc4ccccc43)o2)cc1
    -10	2883	-21	2.5	3	9	-13
45. O=C(NCCCc1ccncc1)C1CCC(=O)N(CCc2cccc(F)c2)C1 (configuration not stated)
    6	5674	-11	-0.1	5	8	-4
46. CCN(CC)c1ccc(C=NNC(=O)c2ccoc2C)cc1
    1	.	.	0.9	3	4	.
47. Cc1ccc(S(=O)(=O)NC2CCCC2)cc1C
    6	3916	-1	-1.1	.	.	-40
48. COCCNC(=O)c1sc2ncn(CC(=O)Nc3ccc(C)c(Cl)c3)c(=O)c2c1C
    11	2017	7	-0.9	-4	4	-2
49. Cc1ccc(N2C(=O)N(CC(=O)NCc3ccccc3Cl)C(=O)C2C)cc1 (configuration not stated)
    -1	3297	5	0.4	2	-2	46
50. CCOc1ccccc1NC(=O)COn1nnc2ccccc21
    -7	2475	2	-2.2	.	.	-14
51. CC(C)(C)NC(=O)c1cc(-c2ccc3c(c2)OCO3)nc2ccccc12
    -1	.	-13	3.3	-15	-9	-13
52. CCc1ccc(C=NNC(=O)c2nnn(-c3nonc3N)c2CN2CCOCC2)cc1
    -1	.	.	-2.1	-2	8	.
53. CCN(CC)CCOC(=O)c1ccc(NC(=O)c2cn(-c3ccccc3)nc2-c2cccs2)cc1
    -12	3958	.	-6.4	-6	3	-11
54. C[C@H](CO)N1C[C@H](C)[C@@H](CN(C)C(=O)NC2CCCCC2)Oc2ccc(NC(=O)Nc3ccc(C(F)(F)F)cc3)cc2C1=O
    -3	3876	.	-21	-2	6	-22
55. C[C@H](NC(=O)c1nc[nH]c1C(=O)N[C@@H](C)C(=O)OC(C)(C)C)C(=O)OC(C)(C)C
    .	3724	0	.	.	.	-15
56. CCn1c(=O)c(C(=O)NC(C)c2ccccc2)c(O)c2ccccc21 (configuration not stated)
    11	2861	-6	1.9	1	-2	-7
57. COCCOC(=O)c1[nH]c2c(c1C)C(=O)CC(c1cc(OC)c(OC)c(OC)c1)C2 (configuration not stated)
    4	4231	6	2.1	-2	8	-9
58. CN(CC(=O)N1CCN(c2ccccn2)CC1)S(=O)(=O)c1ccc(Br)cc1
    1	3360	-3	8.9	8	5	-9
59. C=C(CC1(C(NP(=O)(c2ccccc2)c2ccccc2)C2CC2CCCC)CC1)c1ccccc1 (configuration not stated)
    4	.	.	2.6	11	9	.
60. O=C(c1cc(-c2ccncc2)nc2ccccc12)N1CCN(c2ncccn2)CC1
    -1	3687	.	2.1	1	17	2
61. CC(NCc1ccc(N(C)C)cc1)C1CC2CCC1C2 (configuration not stated)
    4	10933	-2	3.8	3	2	-18
62. Oc1ccc(-c2nccc(-c3ccc(F)cc3)n2)cc1
    10	3324	6	12	6	-19	-56
63. Cc1ccc(S(=O)(=O)NC(=O)Nc2ccc(Cl)cn2)cc1
    15	9345	6	5.8	-4	1	-22
64. CC1=NN(/C(=N/c2nnc(C)s2)Nc2ccccc2)[C@H](c2cccc3ccccc23)S1
    31	.	.	-6.9	14	5	.
65. Nc1nnnn1/N=C/c1ccccc1C(F)(F)F
    .	2785	1	.	.	.	7
66. COc1ccc(/C=C2\Oc3cc(OCC(=O)N4CCC[C@H]4C(=O)O)ccc3C2=O)cc1OC
    9	4275	0	0.3	.	.	-5
67. CC(=CC(=O)OCCCCCCCCC(=O)O)CC1OCC(CC2OC2C(C)C(C)O)C(O)C1O (configuration not stated)
    100*	.	.	100*	7	-5	.
68. Cc1ccccc1N1CCN(C(=S)c2ccccc2)CC1
    12	2059	-1	6.5	4	-9	-14
69. Clc1ccc(-n2cnc3c(Cl)ncnc32)cc1Cl
    -5	4159	.	2.7	19	10	-9
70. Cc1ccc(C=C2C(=O)NC(=O)N(CCc3ccc(F)cc3)C2=O)o1
    -1	.	.	1.9	4	-6	.
71. Cc1cccc(NC(=O)NCCN2CCN(c3ccccc3)CC2)c1C
    3	3927	-3	0.5	2	-3	-9
72. Cc1nnc2n1N=CC=C(C(C)(C)C)S2
    1	23527*	-2	4.6	8	17	-12
73. CCCCC(=O)NCCc1cc2ccc(OC)cc2[nH]c1=O
    6	3570	.	1.1	.	.	-16

An unsorted share of the library, and some 4% of all compounds hit somewhere here.
